# Screens deposited in PubChem by several laboratories.
# Vif A3G: inhibitors of Vif binding to APOBEC3G peptide, primary screen, biochemical, TR-FRET, GST-Vif 1-94, biotin-A3G peptide, dose response retest (AID 1117319); TR-FRET GST-Vif / biotin-A3G peptide binding; higher % means a stronger effect; test concentration not given here; strong numbers were not always called active; 260,000 compounds, 0.57% hits; inhibition, %; hits with a dose series show IC50 in µM;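 active = above the screen mean plus three standard deviations and confirmed in dose response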;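 note: Vif residues 1-94 fused to GST binding biotinylated APOBEC3G peptide 110-148; 0% = full assay without inhibitor and 100% = GST in place of GST-Vif; retest series ran down from 100 µM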
# HNF4A DNA FP: change in binding of human HNF4 alpha to DNA | 360,000 compounds, 0.3% hits | HNF4a-FITC DNA binding, fluorescence polarization, 1 h | P41235 | activity change, % at 10 µM; in the data active = activity change above about 30%, passing the limit was not always enough;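 note: controls were the assay level and a saturating level of protein; the project sought stronger binding though the title names inhibitors; some compounds called inactive have numbers as strong as hits; positive values seem to mean higher polarization but the record does not say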
# Target sequence (P41235 whole entry, looked up): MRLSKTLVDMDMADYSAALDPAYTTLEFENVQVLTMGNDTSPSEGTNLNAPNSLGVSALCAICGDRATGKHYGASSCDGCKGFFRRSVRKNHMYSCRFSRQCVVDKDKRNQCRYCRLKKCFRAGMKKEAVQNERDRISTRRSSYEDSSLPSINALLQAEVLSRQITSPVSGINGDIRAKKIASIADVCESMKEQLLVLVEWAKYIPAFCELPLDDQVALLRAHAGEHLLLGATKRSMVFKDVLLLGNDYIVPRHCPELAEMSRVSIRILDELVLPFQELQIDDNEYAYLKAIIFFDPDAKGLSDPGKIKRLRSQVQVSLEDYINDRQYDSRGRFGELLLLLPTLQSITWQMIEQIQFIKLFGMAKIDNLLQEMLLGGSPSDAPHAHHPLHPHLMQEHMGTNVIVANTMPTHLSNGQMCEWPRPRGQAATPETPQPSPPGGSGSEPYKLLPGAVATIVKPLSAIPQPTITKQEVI
# AF4-AF9 inh: blocks AF4 peptide binding to human AF9 | P42568 | AlphaScreen, biotin-AF4 peptide binding to FLAG-AF9 | inhibition, % at 10 µM | 350,000 compounds, 0.47% hits | AID 651704;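 active = every replicate reaching a set inhibition limit, whatever the replicate mean, cut at about 25% in these data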;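 note: 0% = plate neutral control median and 100% = total signal loss; the record names both 10 and 1 µM as test concentration; the first replicate is given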
# Ecoli growth: E. coli growth inhibition; Escherichia coli growth, OD600, 23 h; hits give low values; OD600 absorbance (concentration not given with the values); 330,000 compounds, 0.21% hits; AID 1053175;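 active = OD600 absorbance below the run mean of sample wells minus 3.6 SD, in any replicate, cut at about 0.56 in these data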;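 note: stock transfer was 300 nL into about 60 µL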
# FGF22 binding: shifts melting point of recombinant human FGF22. Q9HCT0. recombinant FGF22 thermal shift, SYPRO orange fluorescence; percent of sucrose octasulfate shift, DMSO zero. calls only at 9.99 µM. 340,000 compounds, 1.5% hits;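 active = melting point raised past a set limit in the mean and every replicate; three in four hits are not shown here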
# Target sequence (Q9HCT0 whole entry, looked up): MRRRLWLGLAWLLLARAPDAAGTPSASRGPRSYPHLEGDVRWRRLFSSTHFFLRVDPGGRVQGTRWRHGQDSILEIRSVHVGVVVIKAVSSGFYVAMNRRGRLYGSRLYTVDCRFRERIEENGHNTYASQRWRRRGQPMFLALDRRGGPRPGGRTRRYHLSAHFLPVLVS
# rRNA inh HTS: inhibitors of bacterial rRNA selective over humanized ribosomes; E. coli WT GFP vs humanized-ribosome RFP mutants, fluorescence, 24 h; hits give low values; DMSO median 0, no signal -100; GFP signal change (wild-type ribosome), % (test concentration not listed); 350,000 compounds, 1.6% hits; AID 720706;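 active = significant combined selectivity score with lowered wild-type GFP, culture density cut under 30%, mutant RFP and density less affected; inactive = any of these conditions unmet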; note: one replicate is shown; some compounds called inactive have numbers as strong as hits
# ALR inh: blocks human ALR sulfhydryl oxidase activity | P55789 | purified ALR, DTT oxidation, H2O2 HRP-luminol luminescence | inhibition, % (test concentration not listed) | 290,000 compounds, 3.8% hits | AID 485317;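 active = mean and each replicate at 75% or more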;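 note: stock transfer was 7.5 nL into about 7.5 µL; 0% = neutral wells and 100% = wells with inactivated enzyme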
# Target sequence (P55789 whole entry, looked up): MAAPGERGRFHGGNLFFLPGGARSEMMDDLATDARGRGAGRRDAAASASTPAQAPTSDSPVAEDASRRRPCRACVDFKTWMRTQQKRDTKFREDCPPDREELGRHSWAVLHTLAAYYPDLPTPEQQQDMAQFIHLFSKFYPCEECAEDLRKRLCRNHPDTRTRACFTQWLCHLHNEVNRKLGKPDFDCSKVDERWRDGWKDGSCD
# rRNA inh HTS OD600: recorded beside rRNA inh HTS, whose call it bears; OD600 change, %; measured here: OD600 growth;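 optical density of the mix in the first replicate; 0 = DMSO median and -100 = no signal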
# rRNA inh HTS RFP: also measured in rRNA inh HTS; calls as there; RFP signal change, %; measured here: RFP humanized mutant strains;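 first replicate; 0 = DMSO median and -100 = no signal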
# An asterisk follows results filed as active; i = inactive; x = no result given. A portion of the library (hit frequency here may not be typical).
# Values run as follows: Vif A3G	HNF4A DNA FP	AF4-AF9 inh	Ecoli growth	FGF22 binding	rRNA inh HTS	rRNA inh HTS OD600	rRNA inh HTS RFP	ALR inh
1	COc1ccc(-c2nn(-c3ccccc3)cc2/C=N/O)cc1
    1%	-1.3	2.6	x	i	-38*	-31*	-1.3*	35
2	C[C@H]1CN([C@@H](C)CO)C(=O)Cc2cc(NC(=O)C3CCCCC3)ccc2O[C@@H]1CN(C)CC1CC1
    x	x	-1.1	x	i	5	18	-2.3	x
3	CCn1c(CSCc2ccc(F)cc2)nnc1SCC(=O)NCc1ccccc1
    -4%	-0.4	x	x	x	x	x	x	-5
4	COC(=O)c1ccc(CNC(=O)CNC(=O)c2sc3ccccc3c2Cl)cc1
    -7%	3.2	-20	0.72	i	10	21	3.0	x
5	COc1cc2nc(Cl)nc(N3CCN(C)CC3)c2cc1OC
    2%	x	x	0.65	x	x	x	x	-1
6	COc1cc(C(=O)NCCOc2ccccc2)c(Br)c(OC)c1OC
    -1%	5.8	x	0.74	x	x	x	x	-2
7	C[C@H]1CN([C@@H](C)CO)C(=O)c2cc(-c3cncnc3)cnc2O[C@@H]1CN(C)C(=O)c1ccccc1F
    x	x	-0.7	x	i	2	9	-1.1	x
8	O=C(Nc1ccc2c(c1)OCO2)C1Cc2ccccc2CN1S(=O)(=O)c1cccs1 (centres undefined)
    0%	-4.8	x	0.74	x	x	x	x	-13
9	COCC(=O)N1CCCCN2[C@H](CO)[C@@H](c3ccc(-c4ccc(F)cc4)cc3)[C@@H]2C1
    x	x	-3.4	x	i	0	-4	-0.8	x
10	CC(C)NC(=O)CSc1nnc(-c2ccc(S(=O)(=O)N3CCCC3)cc2)n1CC1CCCO1 (centres undefined)
    -18%	1.8	x	0.7	x	x	x	x	-2
11	CO[C@@H]1CN(C)C(=O)c2cc(NC(C)=O)ccc2OC[C@@H](C)N(C(=O)c2ccccc2F)C[C@H]1C
    x	x	0.4	x	i	0	-1	-1.3	x
12	CC(C)(CNc1ccc([N+](=O)[O-])cc1Cl)N1CCOCC1
    x	-1.6	5.1	0.69	i	-2	3	-3.0	-4
13	COc1cc(O)c(C(CC(=O)N2CCOCC2)c2ccc3c(c2)OCO3)c(OC)c1 (centres undefined)
    x	-2.1	x	0.7	i	6	8	1.9	18
14	COC(=O)c1ccc(COc2ccccc2/C=C(\C#N)C(=O)Nc2ccccc2C)cc1
    x	1.2	x	0.7	x	x	x	x	4
15	CC1=CC2=NC(=O)/C(=C\c3cccn3CCOc3ccc(C)c(C)c3)C(=N)N2O1
    x	-0.9	x	0.73	x	x	x	x	-1
16	Cc1ccccc1C(=O)Nc1c2c(nc3ccccc13)CCCC2
    x	-0.2	-1.1	0.74	i	-18	-34	-20	x
17	COc1cccc(C(=O)NCCS(=O)(=O)N2CCCCCC2)c1
    x	0.3	0.4	x	x	5	8	-1.8	-8
18	COc1ccc(C)cc1NC(=O)Nc1cnccn1
    7%	2.5	3.1	0.69	i	-1	-1	-3.9	5
19	CCCCOc1ccc(CCC(=O)N/N=C/c2ccco2)cc1
    -3%	-4.0	1.7	x	i	9	-12	-0.6	54
20	CCCC1COC(Cn2cncn2)(c2ccc(C)cc2)O1 (centres undefined)
    9%	-1.1	2.3	0.7	i	-1	8	-0.2	x
21	COc1ccc(C2CC(c3ccccc3)Nc3nc(NS(C)(=O)=O)nn32)cc1 (centres undefined)
    2%	-0.8	-0.1	0.69	i	6	8	-0.8	2
22	COc1ccc(NC(=O)c2sccc2SCc2cccc(C(F)(F)F)c2)cc1
    7%	-5.3	x	0.73	x	x	x	x	-24
23	COc1ccccc1NC(=O)C(C)OC(=O)COc1cccc2c1OC(C)(C)C2 (centres undefined)
    -2%	-0.1	1.6	0.69	i	1	-4	0.0	-2
24	C[C@@H](NC(=O)C[C@@H]1C[C@H]2c3cc(NS(=O)(=O)c4ccc(F)cc4)ccc3O[C@H]2[C@@H](CO)O1)c1ccccc1
    x	x	2.6	x	i	-1	-8	0.3	x
25	COc1ccc(OC)c(S(=O)(=O)NCc2csc(-c3ccccc3)n2)c1
    6%	0.1	x	0.68	x	x	x	x	-7
26	COc1cccc(S(=O)(=O)Nc2ccc3sc(C)nc3c2)c1
    0%	1.9	x	0.62	x	x	x	x	9
27	Cc1cc(C)c(C#N)c(SCc2ccc(C(=O)O)cc2)n1
    30%	-3.0	-11	x	i	-2	-16	-0.7	-5
28	COc1ccccc1CNC(=O)CN1C(=O)NC(c2ccccc2)(c2ccccc2)C1=O
    1%	-4.3	-6.9	0.67	i	-16*	4.9*	1.9*	-7
29	N#C[C@H]1[C@H](c2ccccc2)[C@@H](CO)N1C(=O)Nc1cccc(F)c1
    x	x	0.2	x	i	-4	-9	0.1	x
30	COc1ccc(C(CNC(=O)c2oc3cc(Br)ccc3c2C)N2CCCCC2)cc1 (centres undefined)
    x	2.0	5.9	0.71	i	-42	-73	-4.3	-3

# Gathered by group, the entries above containing four or more nitrogen atoms
# Values run as follows: Vif A3G	HNF4A DNA FP	AF4-AF9 inh	Ecoli growth	FGF22 binding	rRNA inh HTS	rRNA inh HTS OD600	rRNA inh HTS RFP	ALR inh
3	CCn1c(CSCc2ccc(F)cc2)nnc1SCC(=O)NCc1ccccc1
    -4%	-0.4	x	x	x	x	x	x	-5
5	COc1cc2nc(Cl)nc(N3CCN(C)CC3)c2cc1OC
    2%	x	x	0.65	x	x	x	x	-1
7	C[C@H]1CN([C@@H](C)CO)C(=O)c2cc(-c3cncnc3)cnc2O[C@@H]1CN(C)C(=O)c1ccccc1F
    x	x	-0.7	x	i	2	9	-1.1	x
10	CC(C)NC(=O)CSc1nnc(-c2ccc(S(=O)(=O)N3CCCC3)cc2)n1CC1CCCO1 (centres undefined)
    -18%	1.8	x	0.7	x	x	x	x	-2
15	CC1=CC2=NC(=O)/C(=C\c3cccn3CCOc3ccc(C)c(C)c3)C(=N)N2O1
    x	-0.9	x	0.73	x	x	x	x	-1
18	COc1ccc(C)cc1NC(=O)Nc1cnccn1
    7%	2.5	3.1	0.69	i	-1	-1	-3.9	5
21	COc1ccc(C2CC(c3ccccc3)Nc3nc(NS(C)(=O)=O)nn32)cc1 (centres undefined)
    2%	-0.8	-0.1	0.69	i	6	8	-0.8	2

# Remaining list, next part:
# Values run as follows: Vif A3G	HNF4A DNA FP	AF4-AF9 inh	Ecoli growth	FGF22 binding	rRNA inh HTS	rRNA inh HTS OD600	rRNA inh HTS RFP	ALR inh
31	CCCCSCCCNC(=O)Nc1ccc(C)c(C)c1
    x	0.3	-1.2	0.67	i	-31	-51	0.2	-6
32	O=C(CC[C@H]1O[C@@H](n2cnc3c(NC(=O)c4ccccc4)ncnc32)[C@H](O)[C@@H]1O)NCC1CCCCC1
    x	4.7	-2.5	x	i	12	2	2.2	x
33	Cc1c(C(=O)N2CCCCC2CCN2CCCC2=O)oc2c(F)cccc12 (centres undefined)
    x	-2.6	0.8	0.67	i	-2	-8	-1.5	1
34	Oc1ccc(C(=S)N2CCCCC2)cc1
    0%	1.8	x	0.71	x	x	x	x	10
35	COCC(=O)N(C)C[C@@H]1Oc2cc(C#Cc3cccnc3)ccc2S(=O)(=O)N([C@@H](C)CO)C[C@H]1C
    x	x	-2.9	x	i	1	-8	-3.3	x
36	CC1CN(Cc2ccccc2)c2nc3c(c(=O)n(C)c(=O)n3C)n2C1 (centres undefined)
    1%	-0.7	8.8	0.73	i	-4	-10	-7.4	39
37	CO[C@H]1CN(C)C(=O)c2ccc(NC(=O)C3CCC3)cc2OC[C@@H](C)N(Cc2ccccn2)C[C@@H]1C
    x	x	0.3	x	i	-2	-5	-2.2	x
38	COc1cccc(-c2ccc3c(c2)O[C@@H](CN(C)C(=O)C2CCCCC2)[C@H](C)CN([C@H](C)CO)S3(=O)=O)c1
    x	x	7.4	x	i	-6	-11	6.7	x
39	COCC#Cc1ccc([C@@H]2[C@H](CO)N3CCCCN(Cc4cncnc4)C[C@@H]23)cc1
    x	x	5.7	x	i	1	-3	1.3	x
40	C#CCOc1ccc(/C=C2/C(=O)ON=C2C)cc1OCC
    9%	1.6	-3.5	0.68	i	2	1	0.1	10
41	CC(=O)c1ccccc1NC(=O)COC(=O)CN1C(=O)C2CCCCC2C1=O (centres undefined)
    83%	0.3	1.4	0.71	i	4	-2	5.2	x
42	COc1c(C)cc(C(O)c2ncc(-c3cccc(F)c3)[nH]2)cc1C (centres undefined)
    x	-2.4	4.5	x	i	9	-3	4.1	x
43	CC(=O)Nc1ccc(S(=O)(=O)N2CCN(C(=O)c3ncoc3-c3ccccc3C)CC2)cc1
    x	3.7	-2.3	0.68	i	3	1	-2.7	-27
44	CCN(CC)C(=O)c1ccccc1NS(=O)(=O)c1cccs1
    x	-4.7	-0.1	0.69	i	2	0	1.7	-9
45	COc1ccc(NC(=O)Nc2cccc3c2O[C@H](CN(C)S(=O)(=O)c2ccc(C)cc2)[C@@H](C)CN([C@@H](C)CO)C3=O)cc1
    x	x	3.5	x	i	1	2	1.3	x
46	Cc1ccccc1NC(=S)NC(C)C(c1ccccc1)N1CCN(C)CC1 (centres undefined)
    -2%	1.2	1.4	0.72	i	5	10	1.2	6
47	CCOC(=O)N1CCN(Cc2nc(-c3cccc(C)c3)no2)CC1
    6%	-0.4	-20	0.63	i	-12	-17	-7.8	-6
48	Cc1ccc(S(=O)(=O)CCC(=O)OC(C)C(=O)NC2CCCCC2C)cc1 (centres undefined)
    x	-0.4	0.2	x	i	7	8	0.5	x
49	COc1ccc(/C=C2\SC(=O)N(CCNC(=O)C3CCN(S(=O)(=O)c4cccs4)CC3)C2=O)cc1
    x	31*	x	0.68	x	x	x	x	-39
50	CCOc1ccc(NC(=O)CSc2nnc(Cc3csc(C)n3)o2)cc1
    x	0.0	-1.7	x	i	11	10	-2.2	-3
51	COc1cc(/C=C2\SC(=S)N(C(Cc3ccccc3)C(=O)O)C2=O)ccc1O (centres undefined)
    x	35*	-16	0.64	x	-54	-78	-0.7	x
52	OC1(c2ccc(OC(F)F)cc2)CSC(=Nc2cccnc2)N1C1CC1 (centres undefined)
    -3%	0.9	x	0.71	x	x	x	x	-15
53	COc1ccc(-c2cnn3c4c(c(C)nc23)CCN4C2CCCC2)cc1OC
    10%	-1.9	x	0.69	x	x	x	x	-2
54	COc1ccc(CC(N)c2csc(Nc3ccc(C(=O)c4ccccc4)cc3)n2)cc1 (centres undefined)
    x	1.0	9.2	x	i	-51	-74	-12	x
55	O=C(c1ccc(-n2cncn2)c([N+](=O)[O-])c1)N1CCN(S(=O)(=O)c2ccccc2F)CC1
    6%	-1.0	-19	0.69	i	6	11	-0.8	-10
56	COc1cccc(C(NC(C)=O)c2nc(-c3cccc(C(F)(F)F)c3)cs2)c1 (centres undefined)
    x	0.2	5.5	x	i	-3	-3	3.3	x
57	S=c1[nH]nc(-c2ccc(Cl)cc2Cl)n1-c1ccc(Cl)cc1
    3%	-0.6	-7.4	0.71	i	-25	-26	-12	94*
58	COc1ccc(C(=O)OCC(=O)Nc2ccc3[nH]c(=O)[nH]c3c2)cc1
    1%	0.3	0.8	0.72	i	0	2	-0.9	10
59	Cn1c(SCC(=O)NC2CCCC2)nnc1-c1ccncc1
    -1%	-2.5	-2.0	0.65	i	22	20	1.3	-8
60	O=C(Cc1ccccc1)Nc1ccccc1Sc1ccccc1
    -7%	2.0	x	0.65	x	x	x	x	-7
61	CN(C)C(C(=O)NC1CCCCC1)c1ccc(Cl)cc1 (centres undefined)
    -3%	0.3	x	0.75	x	x	x	x	-17
62	O=C1CSC(c2cccnc2)N1Cc1ccc(Cl)cc1 (centres undefined)
    -13%	-0.5	-0.6	0.68	i	-2	-4	-2.9	x
